RanGTP-Imp inh – inhibitors of RanGTP-importin-beta interaction, primary screen, biochemical, FRET, CFP-Ran, YFP-importin-beta, homogeneous; Ran GTPase (GTP-bound) - importin-beta complex; AID 2216, 2009; inhibition, % (test concentration not listed); hit rate 1.1% among 300,000; cell-free CFP-Ran/YFP-importin-beta FRET ratio;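 active means most replicates above 15%; inconclusive means exactly half above 15%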;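 further: 0% = DMSO wells and 100% = Ran loaded with GDP instead of GTP; wells of about 40 µL received 100 nL stock; the first replicate is given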
T cruzi repl – inhibitors of intracellular T. cruzi growth, primary screen, luminescence, NIH3T3 host cells; T. cruzi beta-gal in NIH3T3, 90 h; inhibition, % (test concentration not listed); hit rate 1.4% among 300,000;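 active means mean inhibition across valid replicates above about 55%, limit read from the data; inconclusive means mean below that limit but half or more replicates reach it; inactive means mean below it, under half of replicates reach it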;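 further: signal also drops with host cell toxicity which is not excluded here; 0% = plate median of DMSO wells and 100% = zero luminescence signal; higher percent means less beta-gal luminescence so fewer parasites; stock transfer was 50 nL into about 50 µL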
LANA-H2A inh – blockers of LANA interaction with H2A/H2B – biochemical, FP readout, HTS, primary screen; Protein LANA1 (Human herpesvirus 8 type P (isolate GK18)), Q9QR71; cell-free LANA-H2A/H2B peptide, fluorescence polarization; inhibition, % (test concentration not listed); hit rate 0.6% among 320,000; AID 2629, 2010; in the data active means inhibition mostly above about 10%, no sharp cut-off; inactive means mostly below about 6.7%;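 further: stock transfer was 7.5 nL into about 10 µL; 0% = median of vehicle wells and 100% = median of positive control wells; one replicate is shown; the record names a cut of 25% in any replicate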
Target sequence (Q9QR71 whole entry, looked up): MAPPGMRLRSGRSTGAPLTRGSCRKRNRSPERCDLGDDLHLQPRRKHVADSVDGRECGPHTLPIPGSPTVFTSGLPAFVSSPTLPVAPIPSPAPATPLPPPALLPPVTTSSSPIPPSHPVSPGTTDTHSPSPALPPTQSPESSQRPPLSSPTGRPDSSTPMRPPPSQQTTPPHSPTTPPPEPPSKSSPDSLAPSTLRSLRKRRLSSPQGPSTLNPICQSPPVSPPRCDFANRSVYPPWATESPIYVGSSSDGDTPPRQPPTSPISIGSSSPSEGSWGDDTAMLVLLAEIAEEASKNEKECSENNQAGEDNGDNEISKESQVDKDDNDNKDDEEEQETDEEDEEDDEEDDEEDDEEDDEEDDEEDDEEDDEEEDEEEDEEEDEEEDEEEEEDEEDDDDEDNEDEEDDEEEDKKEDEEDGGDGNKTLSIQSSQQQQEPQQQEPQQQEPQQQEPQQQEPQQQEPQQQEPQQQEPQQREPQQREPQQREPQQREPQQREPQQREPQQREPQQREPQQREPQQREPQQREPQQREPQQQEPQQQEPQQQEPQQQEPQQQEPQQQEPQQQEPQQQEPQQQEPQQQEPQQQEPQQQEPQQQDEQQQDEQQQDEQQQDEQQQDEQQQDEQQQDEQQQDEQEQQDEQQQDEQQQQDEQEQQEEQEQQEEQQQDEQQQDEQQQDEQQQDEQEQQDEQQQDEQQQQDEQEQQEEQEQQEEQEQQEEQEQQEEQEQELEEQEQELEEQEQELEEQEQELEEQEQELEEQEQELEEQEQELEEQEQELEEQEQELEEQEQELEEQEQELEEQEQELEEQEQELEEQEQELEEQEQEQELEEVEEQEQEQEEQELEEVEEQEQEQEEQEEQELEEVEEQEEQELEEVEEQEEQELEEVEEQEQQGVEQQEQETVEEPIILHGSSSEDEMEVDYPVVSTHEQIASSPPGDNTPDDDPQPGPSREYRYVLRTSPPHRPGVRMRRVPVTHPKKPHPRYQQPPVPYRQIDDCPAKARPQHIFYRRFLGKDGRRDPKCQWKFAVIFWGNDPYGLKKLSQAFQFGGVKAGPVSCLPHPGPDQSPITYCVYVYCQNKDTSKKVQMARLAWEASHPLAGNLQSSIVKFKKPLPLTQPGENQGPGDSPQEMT
A1 inh – caspase 3/7 activation in MEF A1-2A-BIM cells, primary screen, A1 inhibitor project, cell-based, luminescence, HTS | Caspase-Glo 3/7 luminescence, 3 h; percent of clofoctol response, vehicle zero | AID 2462, 2010 | hit rate 0.066% among 330,000 | caspase activation, % (test concentration not listed);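 active means over half of replicate activation scores above 10%, or exactly half above 10 with the replicate mean above 10; inconclusive means replicate mean below 10 yet half the replicates above 10; inactive means over half of replicates below 10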;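 further: wells of about 30 µL received 50 nL stock; many hits fall short of the cut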
UCH37 DUB inh – inhibitors of human UCH37 deubiquitinase, primary screen, biochemical, Ub-AMC cleavage, fluorescence | AID 588478, 2011 | inhibition, % (concentration not given with the values) | hit rate 0.33% among 330,000 | Ubiquitin carboxyl-terminal hydrolase isozyme L5 (Homo sapiens), Q9Y5K5 | purified proteasome/UCH37;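 active means mean of two replicates above 20%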;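 further: 0% = compound-free wells with enzyme and 100% = wells lacking proteasome; stock transfer was 100 nL into about 20 µL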
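System: Proteasome-associated human UCH37 deubiquitinase; Input: 0.15 nM proteasome in added enzyme buffer; Also added: Ub-AMC substrate from 1 µM stock; Incubation: 30 min compound-proteasome preincubation then 25 min substrate reaction, room temperature; Detection: fluorescence, ex 355 nm, em 460 nm; Read-out: % inhibition of Ub-AMC cleavage fluorescence; Benchmarks: no-proteasome and no-compound wells.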
Beta cell apopt – inhibitors of cytokine-induced beta cell apoptosis, primary screen, luminescence; protection from apoptosis, % (concentration not given with the values); INS-1E cytokine-induced death, ATP luminescence, 48 h; percent of positive-control rescue, neutral wells zero; hit rate 0.8% among 300,000; AID 435005, 2010;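 active means all replicates at 75% or more, or half of them and the mean; inconclusive means half reach 75% but not the mean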;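 further: 0% = cytokine-treated negative control wells and 100% = positive control rescue; higher means more ATP so stronger rescue from cytokine killing; wells of about 40 µL received 100 nL stock; the first replicate is given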
Beta2AR agonist – beta2AR agonists driving receptor internalization, primary screen, cell-based, FAP fluorogen, flow cytometry; response, % (concentration not given with the values); Am2.2-beta2AR cells; reference of the scale not given here; hit rate 0.43% among 340,000; Beta-2 adrenergic receptor (Homo sapiens), P07550;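 active means response above a set limit, near 3 SD of response in nonfluorescent compounds, cut at about 42% in these data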;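 further: stock transfer was 100 nL into about 11 µL; a reference agonist was the positive control; negative values mostly stem from fluorescent compounds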
Calb FLC – C. albicans growth inhibition with fluconazole, primary screen, CaCi-2 strain, Alamar Blue fluorescence | AID 1979, 2009 | C. albicans CaCi-2 (fluconazole-resistant clinical isolate) + fluconazole, 48 h | growth inhibition, % (concentration not given with the values) | hit rate 0.57% among 300,000;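 active means most replicates above 75%; inconclusive means exactly half above 75%; inactive means most below 75%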;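 further: all wells also contain fluconazole at 8 µg/ml as a sub-toxic cotreatment; 0% = median of DMSO wells and 100% = median of geldanamycin control wells; wells of about 8 µL received 7.5 nL stock; the first replicate is given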
Starred values were filed as active, the others as inactive. No enrichment for hits, and some 4.3% of all compounds hit somewhere here.

How did COC(=O)C1=CO[C@@H](O[C@@H]2O[C@H](CO)[C@@H](O)[C@H](O)[C@H]2O)[C@H]2[C@@H]1C(=O)C[C@@H]2C do in these assays?
LANA-H2A inh: 3.7; A1 inh: 0.2; UCH37 DUB inh: 1.9; Beta cell apopt: -7; Beta2AR agonist: -13

What do the screens show for `Cc1ccccc1Nc1nnc(SCc2cc([N+](=O)[O-])cc3c2OCOC3)s1`?
RanGTP-Imp inh: 3.6; T cruzi repl: 26; LANA-H2A inh: 24*; A1 inh: 0.3; UCH37 DUB inh: 3.6; Beta cell apopt: 2; Beta2AR agonist: -16; Calb FLC: 45

How did O=C(CSc1nnc(-c2ccccc2F)o1)NC(=O)Cc1ccccc1 do in these assays?
LANA-H2A inh: -2.0; A1 inh: 0.3; UCH37 DUB inh: 0.6; Beta cell apopt: 1; Beta2AR agonist: -4

How did CC(=O)N/C(=C\c1ccc(C)o1)C(=O)NCc1ccccc1 do in these assays?
RanGTP-Imp inh: 0.6; T cruzi repl: 0; LANA-H2A inh: 2.0; A1 inh: 0.3; UCH37 DUB inh: 1.1; Beta cell apopt: -7; Beta2AR agonist: 22; Calb FLC: -6

How did O=C(CN1C(=O)COc2ccccc21)NCCC1=CCCCC1 do in these assays?
RanGTP-Imp inh: 2.2; T cruzi repl: 15; LANA-H2A inh: 2.5; A1 inh: 0.5; UCH37 DUB inh: 4.1; Beta cell apopt: -3; Beta2AR agonist: -7; Calb FLC: 29

What do the screens show for `Cc1sc2c(=O)n3c(nc2c1C(=O)NC1CCCCC1)CCCCC3`?
RanGTP-Imp inh: -0.8; T cruzi repl: 4; LANA-H2A inh: -0.5; A1 inh: 0.4; UCH37 DUB inh: 0.9; Beta cell apopt: 4; Beta2AR agonist: -2; Calb FLC: 21

Results for Cc1cccc(C(=O)OCC(=O)Nc2sc3c(c2C#N)CCC3)c1 ?
RanGTP-Imp inh: 5.6; T cruzi repl: -18; LANA-H2A inh: 0.9; A1 inh: -0.2; UCH37 DUB inh: -14; Beta cell apopt: 8; Beta2AR agonist: 0; Calb FLC: 8

How did CCN(CC)CCOc1c(C)cccc1Cl do in these assays?
RanGTP-Imp inh: 1.9; T cruzi repl: 17; LANA-H2A inh: 3.7; A1 inh: -0.8; UCH37 DUB inh: 0.5; Beta cell apopt: -3; Beta2AR agonist: 3; Calb FLC: 1

How did O=S(=O)(c1ccccc1)N1CCN(CC2CC3C=CC2C3)CC1 (configuration not stated) do in these assays?
RanGTP-Imp inh: -2.9; T cruzi repl: -12; LANA-H2A inh: 5.7; A1 inh: -0.1; UCH37 DUB inh: 2.7; Beta cell apopt: -3; Beta2AR agonist: -4; Calb FLC: -12

How did CC1(C)N([O-])C(c2cccs2)=C[N+]1=O do in these assays?
RanGTP-Imp inh: -1.1; T cruzi repl: -12; LANA-H2A inh: -12; A1 inh: 0.1; UCH37 DUB inh: 8.4; Beta cell apopt: -7; Beta2AR agonist: -1; Calb FLC: 4

How did Cc1cc(=O)oc2cc(OCCCN3C(=O)c4ccccc4C3=O)ccc12 do in these assays?
RanGTP-Imp inh: -2.3; T cruzi repl: 5; LANA-H2A inh: 4.4; A1 inh: 0.0; UCH37 DUB inh: -4.8; Beta cell apopt: 1; Beta2AR agonist: -5; Calb FLC: -7

What do the screens show for `COc1ccc(-n2nnnc2SCC(=O)NC(=O)Nc2ccc3c(c2)OCCO3)cc1`?
LANA-H2A inh: -3.8; A1 inh: 0.3; UCH37 DUB inh: -7.3; Beta cell apopt: 6; Beta2AR agonist: -8

What do the screens show for `CCCc1cc(=O)oc2cc(C)cc(OCC(=O)NCCCN3CCOCC3)c12`?
RanGTP-Imp inh: 0.8; T cruzi repl: 13; LANA-H2A inh: 0.3; A1 inh: -1.4; UCH37 DUB inh: -141; Beta cell apopt: -1; Beta2AR agonist: -5; Calb FLC: 0

How did C/C=C(\C)CN1CCC(Oc2cccc(C(=O)NCc3ccccn3)c2)CC1 do in these assays?
RanGTP-Imp inh: 2.5; T cruzi repl: 46; LANA-H2A inh: -2.5; A1 inh: 0.2; Beta cell apopt: 0; Beta2AR agonist: -7; Calb FLC: 9

What do the screens show for `CCc1nc(N2CCN(CC(=O)NCC3CCCO3)CC2)c(C#N)c2c1COC(C)(C)C2` (configuration not stated)?
RanGTP-Imp inh: 6.1; T cruzi repl: 14; LANA-H2A inh: -1.1; A1 inh: 0.9; UCH37 DUB inh: 2.7; Beta cell apopt: 0; Beta2AR agonist: -1; Calb FLC: 1

How did COc1cc(-c2nnc(SCC(=O)N3c4ccccc4Sc4ccccc43)o2)cc(OC)c1OC do in these assays?
RanGTP-Imp inh: 3.4; T cruzi repl: 42; LANA-H2A inh: 5.9; A1 inh: -0.2; UCH37 DUB inh: 2.1; Beta cell apopt: 18; Beta2AR agonist: -1; Calb FLC: 3

What do the screens show for `CC(=NNC(=O)c1cccc(S(=O)(=O)N2CCOCC2)c1)c1ccccc1`?
LANA-H2A inh: 0.2; A1 inh: -0.1; UCH37 DUB inh: 5.8; Beta cell apopt: -3; Beta2AR agonist: 7

Results for CC(C)CNc1nc(=S)nc(N(C)C)[nH]1 ?
RanGTP-Imp inh: inconclusive; T cruzi repl: -17; LANA-H2A inh: 7.8; A1 inh: -0.1; UCH37 DUB inh: 2.6; Beta cell apopt: -6; Beta2AR agonist: -1; Calb FLC: 8

How did O=C1CN(C(=O)CSc2nnc(Nc3ccccc3)s2)c2ccccc2N1 do in these assays?
RanGTP-Imp inh: 2.5; T cruzi repl: 6; LANA-H2A inh: 1.8; A1 inh: -0.5; UCH37 DUB inh: 0.2; Beta cell apopt: 1; Beta2AR agonist: -10; Calb FLC: 10

How did COc1ccc(C2N(c3ccc(Cl)cc3)C(=O)C3CCCN32)cc1 (configuration not stated) do in these assays?
RanGTP-Imp inh: 4.0; T cruzi repl: -8; LANA-H2A inh: -0.9; A1 inh: 0.8; UCH37 DUB inh: 1.3; Beta cell apopt: -12; Beta2AR agonist: 3; Calb FLC: 4

How did COc1ccccc1NC(=S)NC(C)C(c1cccs1)N1CCOCC1 (configuration not stated) do in these assays?
RanGTP-Imp inh: inconclusive; T cruzi repl: -3; LANA-H2A inh: 5.8; A1 inh: 0.4; UCH37 DUB inh: 2.2; Beta cell apopt: 8; Beta2AR agonist: 3; Calb FLC: 22

How did CCOCCn1c(C(C)C)nc2ccccc21 do in these assays?
RanGTP-Imp inh: -0.8; T cruzi repl: -9; LANA-H2A inh: -0.6; A1 inh: -0.5; UCH37 DUB inh: 1.1; Beta cell apopt: -8; Beta2AR agonist: 9; Calb FLC: -15

Results for O=C(Nc1ccccc1)Nc1nnc(COc2ccccc2F)s1 ?
RanGTP-Imp inh: 5.0; T cruzi repl: 22; LANA-H2A inh: 2.3; A1 inh: -0.4; UCH37 DUB inh: 1.2; Beta cell apopt: -3; Beta2AR agonist: -11; Calb FLC: 0

What do the screens show for `CN(C)S(=O)(=O)c1ccc(N2CCCC2)c(C(=O)NCC2CCCCC2)c1`?
RanGTP-Imp inh: 1.8; T cruzi repl: 15; LANA-H2A inh: 0.2; A1 inh: -0.4; UCH37 DUB inh: 0.9; Beta cell apopt: -3; Beta2AR agonist: -4; Calb FLC: -26

How did NC(=O)c1ccsc1NC(=O)CS(=O)(=O)c1ccc(Cl)cc1 do in these assays?
RanGTP-Imp inh: 1.5; T cruzi repl: -16; LANA-H2A inh: 3.6; A1 inh: 2.2; UCH37 DUB inh: 3.3; Beta cell apopt: -3; Beta2AR agonist: -2; Calb FLC: -8

Results for CC1=CC2=NC(=O)/C(=C\c3cn(C)c4ccccc34)C(=N)N2O1 ?
RanGTP-Imp inh: 50*; T cruzi repl: 9; LANA-H2A inh: 0.7; A1 inh: -0.2; UCH37 DUB inh: -49; Beta cell apopt: 2; Beta2AR agonist: -10; Calb FLC: -2

What do the screens show for `CCn1c2ccccc2c2cc(NC(=O)CSc3nnnn3-c3ccccc3)ccc21`?
RanGTP-Imp inh: 2.7; T cruzi repl: 45; LANA-H2A inh: -7.7; A1 inh: -0.2; UCH37 DUB inh: 0.5; Beta cell apopt: -9; Beta2AR agonist: 20; Calb FLC: 15

How did Cc1ccc(NC(=O)CSCc2n[nH]c(=O)[nH]2)c(Br)c1 do in these assays?
RanGTP-Imp inh: inconclusive; T cruzi repl: -15; LANA-H2A inh: 3.2; A1 inh: 0.7; UCH37 DUB inh: 1.2; Beta cell apopt: 3; Beta2AR agonist: -3; Calb FLC: 6

What do the screens show for `Cc1ccn2cc(-c3cccc(S(=O)(=O)N4CCCC4)c3)nc2c1`?
RanGTP-Imp inh: -15; T cruzi repl: 21; LANA-H2A inh: -2.1; A1 inh: -1.7; UCH37 DUB inh: -10; Beta cell apopt: -14; Beta2AR agonist: 9; Calb FLC: 36

Results for c1ccc(-c2cc(-c3nn4c(-c5ccco5)nnc4s3)c3ccccc3n2)cc1 ?
RanGTP-Imp inh: 1.4; T cruzi repl: 34; UCH37 DUB inh: 1.1; Beta2AR agonist: -5; Calb FLC: -3

Results for COc1ccc(C(CNC(=O)COc2ccc(-c3ccccc3)cc2)N2CCOCC2)cc1 (configuration not stated) ?
RanGTP-Imp inh: 0.9; T cruzi repl: 20; LANA-H2A inh: -1.2; A1 inh: -0.3; UCH37 DUB inh: 4.2; Beta cell apopt: 0; Beta2AR agonist: -1; Calb FLC: -1

What do the screens show for `CSc1cccc(NC(=O)CN(c2ccccc2)S(=O)(=O)N(C)C)c1`?
RanGTP-Imp inh: -3.4; T cruzi repl: 3; LANA-H2A inh: 0.4; A1 inh: 1.2; UCH37 DUB inh: 0.9; Beta cell apopt: -6; Beta2AR agonist: 5; Calb FLC: -17

Results for CN(C)c1ccnc2sc(C(=O)NCc3ccccc3)c(N)c12 ?
RanGTP-Imp inh: inconclusive; T cruzi repl: 16; LANA-H2A inh: 1.0; A1 inh: -0.3; UCH37 DUB inh: -10; Beta cell apopt: 0; Beta2AR agonist: 8; Calb FLC: 65

How did COc1cc(C(=O)NCCOc2ccc(C)c(C)c2)cc(OC)c1OC do in these assays?
RanGTP-Imp inh: 1.2; T cruzi repl: 5; LANA-H2A inh: 2.8; A1 inh: -0.1; UCH37 DUB inh: 0.8; Beta cell apopt: -2; Beta2AR agonist: 2; Calb FLC: 2

Results for O=C(CSc1nnc(SCc2ccc(Cl)cc2)s1)N/N=C/c1ccc(C(=O)O)cc1 ?
RanGTP-Imp inh: -4.1; T cruzi repl: -10; LANA-H2A inh: 2.5; A1 inh: -3.2; Beta cell apopt: -3; Beta2AR agonist: 4; Calb FLC: -6

Screening data as filed in PubChem.
